High-throughput results: PubChem BioAssay, several laboratories
UCH37 inh: inhibitors of human UCH37 deubiquitinase, primary screen, biochemical, Ub-AMC cleavage, fluorescence; AID 588478, 2011; purified proteasome/UCH37; 330,000 tested, 0.33% active; inhibition, % (no concentration beside the values);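 active means mean of two replicates above 20%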;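 further: 0% = compound-free wells with enzyme and 100% = wells lacking proteasome; stock transfer was 100 nL into about 20 µL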
Target sequence (Q9Y5K5 whole entry, looked up): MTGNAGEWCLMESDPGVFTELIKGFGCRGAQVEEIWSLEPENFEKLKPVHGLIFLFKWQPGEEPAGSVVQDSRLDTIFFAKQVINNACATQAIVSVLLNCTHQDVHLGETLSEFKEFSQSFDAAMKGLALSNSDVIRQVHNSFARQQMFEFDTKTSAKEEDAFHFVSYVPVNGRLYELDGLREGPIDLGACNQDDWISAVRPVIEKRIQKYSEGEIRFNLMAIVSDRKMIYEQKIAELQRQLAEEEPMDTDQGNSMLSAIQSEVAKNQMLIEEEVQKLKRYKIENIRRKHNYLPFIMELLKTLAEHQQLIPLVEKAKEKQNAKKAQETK
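Schedule: 30 min plus 25 min, room temperature / Material: human UCH37 within purified proteasomes / Technique: AMC fluorescence intensity at 355/460 nm / Buffer or medium: pH 7.4 Tris-HCl (50 mM) with ovalbumin, ATP-MgCl2, DTT / Controls: wells without proteasome as full block, compound-free enzyme plus substrate as uninhibited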
FGF22 binding: binders of human FGF22 protein, primary screen, FGF22 synaptogenesis inhibitor project, biophysical, thermal shift, single point. Fibroblast growth factor 22 (Homo sapiens), Q9HCT0. recombinant FGF22 thermal shift, SYPRO orange fluorescence; percent of sucrose octasulfate shift, DMSO zero. calls only at 9.99 µM. 340,000 tested, 1.5% active. AID 651658, 2012;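 active means melting point raised past a set limit in the mean and every replicate; three in four hits are not shown here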
Target sequence (Q9HCT0 whole entry, looked up): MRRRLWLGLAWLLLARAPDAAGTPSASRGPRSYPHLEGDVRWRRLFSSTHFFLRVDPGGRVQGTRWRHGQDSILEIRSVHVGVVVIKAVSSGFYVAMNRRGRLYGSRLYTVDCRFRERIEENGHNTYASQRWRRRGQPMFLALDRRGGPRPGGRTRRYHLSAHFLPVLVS
Bfl-1 A1 inh: caspase 3/7 activation in MEF A1-2A-BIM cells, primary screen, A1 inhibitor project, cell-based, luminescence, HTS; Caspase-Glo 3/7 luminescence, 3 h; percent of clofoctol response, vehicle zero; caspase activation, % (concentration not given with the values); 330,000 tested, 0.066% active; AID 2462, 2010;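 active means over half of replicate activation scores above 10%, or exactly half above 10 with the replicate mean above 10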;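 further: wells of about 30 µL received 50 nL stock; many hits fall short of the cut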
Ecoli growth: E. coli growth inhibition, primary screen, OD600 | Escherichia coli growth, 23 h; active compounds read low | OD600 absorbance (no concentration beside the values) | 330,000 tested, 0.21% active;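 active means OD600 absorbance below the run mean of sample wells minus 3.6 SD, in any replicate, cut at about 0.56 in these data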;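 further: stock transfer was 300 nL into about 60 µL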
rRNA inh HTS: reduced GFP signal of wild-type E. coli, primary screen, bacterial rRNA inhibitor project, GFP/RFP fluorescence, OD600, single point; E. coli WT GFP vs humanized-ribosome RFP mutants, 24 h; active compounds read low; DMSO median 0, no signal -100; GFP signal change (wild-type ribosome), % (test concentration not listed); 350,000 tested, 1.6% active;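 active means significant combined selectivity score with lowered wild-type GFP, culture density cut under 30%, mutant RFP and density less affected; inactive means any of these conditions unmet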; further: one replicate is shown; some compounds called inactive have numbers as strong as hits
T cruzi repl: inhibitors of intracellular T. cruzi growth, primary screen, luminescence, NIH3T3 host cells; T. cruzi beta-gal in NIH3T3, 90 h; 300,000 tested, 1.4% active; inhibition, % (no concentration beside the values);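 active means mean inhibition across valid replicates above about 55%, limit read from the data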;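 further: signal also drops with host cell toxicity which is not excluded here; 0% = plate median of DMSO wells and 100% = zero luminescence signal; higher percent means less beta-gal luminescence so fewer parasites; stock transfer was 50 nL into about 50 µL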
Beta cell apopt: inhibitors of cytokine-induced beta cell apoptosis, primary screen, luminescence | protection from apoptosis, % (concentration not given with the values) | INS-1E cytokine-induced death, ATP luminescence, 48 h; percent of positive-control rescue, neutral wells zero | 300,000 tested, 0.8% active;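 active means all replicates at 75% or more, or half of them and the mean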;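 further: 0% = cytokine-treated negative control wells and 100% = positive control rescue; higher means more ATP so stronger rescue from cytokine killing; wells of about 40 µL received 100 nL stock; the first replicate is given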
AF4-AF9 inh: inhibitors of AF4 peptide binding to AF9, primary screen, biochemical, AlphaScreen, biotin-AF4 peptide, FLAG-AF9, single point; inhibition, % at 10 µM; 350,000 tested, 0.47% active;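 active means every replicate reaching a set inhibition limit, whatever the replicate mean, cut at about 25% in these data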;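 further: 0% = plate neutral control median and 100% = total signal loss; the record names both 10 and 1 µM as test concentration; the first replicate is given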
Target sequence (P42568 whole entry, looked up): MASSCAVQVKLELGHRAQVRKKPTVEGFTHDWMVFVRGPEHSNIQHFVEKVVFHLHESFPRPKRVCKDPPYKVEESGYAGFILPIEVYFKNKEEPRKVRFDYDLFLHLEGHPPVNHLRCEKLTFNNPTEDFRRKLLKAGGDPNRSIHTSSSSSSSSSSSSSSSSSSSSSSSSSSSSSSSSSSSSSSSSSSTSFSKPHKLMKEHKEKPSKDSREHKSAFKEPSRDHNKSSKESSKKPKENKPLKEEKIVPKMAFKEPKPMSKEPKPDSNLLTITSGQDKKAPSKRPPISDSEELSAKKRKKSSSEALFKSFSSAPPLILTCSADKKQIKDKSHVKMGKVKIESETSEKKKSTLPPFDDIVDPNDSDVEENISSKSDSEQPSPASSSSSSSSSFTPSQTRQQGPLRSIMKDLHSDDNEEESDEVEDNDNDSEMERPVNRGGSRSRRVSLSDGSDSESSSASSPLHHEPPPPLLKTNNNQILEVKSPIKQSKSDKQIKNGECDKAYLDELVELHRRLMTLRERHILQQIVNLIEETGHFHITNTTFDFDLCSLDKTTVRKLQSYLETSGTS
rRNA inh HTS OD600: also measured in rRNA inh HTS; calls as there; OD600 change, %; measured here: OD600 growth;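 optical density of the mix in the first replicate; 0 = DMSO median and -100 = no signal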
rRNA inh HTS RFP: further read-out of rRNA inh HTS, marked with its call; RFP signal change, %; measured here: RFP humanized mutant strains;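 first replicate; 0 = DMSO median and -100 = no signal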
Active calls of the source: *.

CC(Sc1nc(N)c(NC(=O)c2ccc(Br)o2)c(=O)[nH]1)C(=O)O (centres undefined) was read as UCH37 inh -1.7, FGF22 binding inactive, Bfl-1 A1 inh 1.6, Ecoli growth 0.74, rRNA inh HTS 3, T cruzi repl -1, Beta cell apopt -3, AF4-AF9 inh -0.3, rRNA inh HTS OD600 16 and rRNA inh HTS RFP 0.7.
For CCC(=O)Nc1ccccc1C(=O)OCC(=O)Nc1ccc(S(N)(=O)=O)cc1 the results were UCH37 inh 0.6, Bfl-1 A1 inh 0.6, Ecoli growth 0.66, T cruzi repl -6 and Beta cell apopt -4.
`C/C(=N\N(c1ccccc1)c1ccccc1)c1ccc(N)cc1` gave FGF22 binding inactive, Bfl-1 A1 inh 0.4, rRNA inh HTS -6, T cruzi repl 15, Beta cell apopt 3, AF4-AF9 inh -8.9, rRNA inh HTS OD600 0 and rRNA inh HTS RFP -3.6.
For COc1ccc(NS(=O)(=O)c2ccc(C)c(NC(=O)CNC(=O)c3ccco3)c2)cc1 the results were UCH37 inh 2.9, FGF22 binding inactive, Ecoli growth 0.68, rRNA inh HTS 1, AF4-AF9 inh -7.8, rRNA inh HTS OD600 1 and rRNA inh HTS RFP 1.9.
For CC(C)n1cnnc1SCC(=O)Nc1ccc(N2CCCCC2)cc1 the results were UCH37 inh 3.0, FGF22 binding inactive, Bfl-1 A1 inh -0.5, Ecoli growth 0.68, rRNA inh HTS -1, T cruzi repl -4, AF4-AF9 inh 7.4, rRNA inh HTS OD600 0 and rRNA inh HTS RFP -0.4.
For COC(=O)C1=C(C)NC(=O)NC1c1ccccc1Cl (centres undefined) the results were UCH37 inh 2.7, FGF22 binding inactive, Bfl-1 A1 inh -3.7, Ecoli growth 0.69, rRNA inh HTS 6, T cruzi repl -13, Beta cell apopt 7, AF4-AF9 inh -14, rRNA inh HTS OD600 4 and rRNA inh HTS RFP 0.1.
CN(C(=O)COC(=O)CNS(=O)(=O)/C=C/c1ccccc1)C1CCS(=O)(=O)C1 (centres undefined) was read as UCH37 inh 5.1, Bfl-1 A1 inh -0.4, Ecoli growth 0.71, T cruzi repl -12 and Beta cell apopt -6.
For COc1ccc(C(=O)NCCc2cc3ccc(C)c(C)c3[nH]c2=O)cc1OC the results were UCH37 inh -2.4, FGF22 binding inactive, Bfl-1 A1 inh 0.6, Ecoli growth 0.68, rRNA inh HTS 1, T cruzi repl 10, Beta cell apopt -1, AF4-AF9 inh -0.5, rRNA inh HTS OD600 8 and rRNA inh HTS RFP 0.1.
Screening CCn1c(C)cc(/C=C2\NC(=O)N(Cc3ccc(Cl)cc3)C2=O)c1C returned UCH37 inh -13, Bfl-1 A1 inh 0.8, Ecoli growth 0.75, T cruzi repl 55* and Beta cell apopt -1.
For COc1ccccc1NC(=O)N1CCCC1C(=O)NC1CCCCC1 (centres undefined) the results were UCH37 inh 1.3, Bfl-1 A1 inh -0.6, Ecoli growth 0.67 and T cruzi repl -12.
Cc1cc(C)cc(NC(=O)C2C3C=CC4(O3)C2C(=O)N(CCCN2CCCCC2)C4C(=O)NC2CCCCC2)c1 (centres undefined) was read as UCH37 inh 5.3, FGF22 binding inactive, Bfl-1 A1 inh 0.1, Ecoli growth 0.67, rRNA inh HTS 0, T cruzi repl 4, Beta cell apopt 0, AF4-AF9 inh -1.5, rRNA inh HTS OD600 -2 and rRNA inh HTS RFP -1.7.
O=C(O)c1ccccc1C(=O)Nc1ccc(S(=O)(=O)NC2CCCCC2)cc1 was read as UCH37 inh -0.2, Bfl-1 A1 inh 0.0, Ecoli growth 0.63, T cruzi repl -10 and Beta cell apopt -6.
COc1ccc(C)c2sc(N(CCCN(C)C)C(=O)c3ccc4c(c3)OCCO4)nc12 was read as UCH37 inh 3.0, FGF22 binding inactive, Bfl-1 A1 inh 0.3, Ecoli growth 0.66, rRNA inh HTS -5, T cruzi repl 14, Beta cell apopt 3, AF4-AF9 inh -15, rRNA inh HTS OD600 -9 and rRNA inh HTS RFP 11.
Screening CN(C)CCN(C(=O)c1cccc2ccccc12)c1nc2cc3c(cc2s1)OCO3 returned UCH37 inh 1.9, FGF22 binding inactive, Bfl-1 A1 inh 0.7, Ecoli growth 0.63, rRNA inh HTS -59, T cruzi repl 22, Beta cell apopt 5, AF4-AF9 inh 28*, rRNA inh HTS OD600 -80 and rRNA inh HTS RFP -20.
For CC1CC(c2ccccc2)n2nc(NC(=O)c3ccco3)nc2N1 (centres undefined) the results were UCH37 inh -1.4, Bfl-1 A1 inh 1.3, Ecoli growth 0.82, T cruzi repl -9 and Beta cell apopt -3.

The list goes on, starting with the last 3 of the part before.
COc1ccc(C)c2sc(N(CCCN(C)C)C(=O)c3ccc4c(c3)OCCO4)nc12 was read as UCH37 inh 3.0, FGF22 binding inactive, Bfl-1 A1 inh 0.3, Ecoli growth 0.66, rRNA inh HTS -5, T cruzi repl 14, Beta cell apopt 3, AF4-AF9 inh -15, rRNA inh HTS OD600 -9 and rRNA inh HTS RFP 11.
Screening CN(C)CCN(C(=O)c1cccc2ccccc12)c1nc2cc3c(cc2s1)OCO3 returned UCH37 inh 1.9, FGF22 binding inactive, Bfl-1 A1 inh 0.7, Ecoli growth 0.63, rRNA inh HTS -59, T cruzi repl 22, Beta cell apopt 5, AF4-AF9 inh 28*, rRNA inh HTS OD600 -80 and rRNA inh HTS RFP -20.
For CC1CC(c2ccccc2)n2nc(NC(=O)c3ccco3)nc2N1 (centres undefined) the results were UCH37 inh -1.4, Bfl-1 A1 inh 1.3, Ecoli growth 0.82, T cruzi repl -9 and Beta cell apopt -3.
CSc1ncc(CO)n1Cc1ccccc1 was read as UCH37 inh 5.0, FGF22 binding inactive, Bfl-1 A1 inh 0.5, Ecoli growth 0.7, rRNA inh HTS 7, T cruzi repl -10, Beta cell apopt -9, AF4-AF9 inh -1.7, rRNA inh HTS OD600 2 and rRNA inh HTS RFP 0.3.
O=C(COC(=O)C12CC3CC(CC(C3)C1)C2)N1CCN(S(=O)(=O)c2ccccc2)CC1 was read as UCH37 inh 3.7, Bfl-1 A1 inh -0.2, Ecoli growth 0.73, T cruzi repl 4 and Beta cell apopt -7.
`CN(C(=O)C1CCCN(S(=O)(=O)c2cccc([N+](=O)[O-])c2)C1)C1CCS(=O)(=O)C1` (centres undefined) gave UCH37 inh 1.4, FGF22 binding inactive, Bfl-1 A1 inh -0.8, Ecoli growth 0.7, rRNA inh HTS 9, T cruzi repl 3, Beta cell apopt 1, AF4-AF9 inh -1.3, rRNA inh HTS OD600 14 and rRNA inh HTS RFP -2.4.
COc1ccc(S(=O)(=O)N2CCN(C(=O)/C=C/c3ccco3)CC2)cc1 was read as UCH37 inh 7.4, FGF22 binding inactive, Ecoli growth 0.66, rRNA inh HTS 8, AF4-AF9 inh 0.6, rRNA inh HTS OD600 9 and rRNA inh HTS RFP 0.7.
For COc1cc(NC(=O)Cn2ccsc2=N)c(C)cc1[N+](=O)[O-] the results were UCH37 inh 5.2, FGF22 binding inactive, Bfl-1 A1 inh 0.5, Ecoli growth 0.63, rRNA inh HTS 9, T cruzi repl 3, Beta cell apopt -6, AF4-AF9 inh 0.5, rRNA inh HTS OD600 6 and rRNA inh HTS RFP -3.3.
`COc1ccc(/[N+]([O-])=C/c2ccco2)cc1` gave UCH37 inh 5.2, FGF22 binding inactive, Bfl-1 A1 inh -4.6, rRNA inh HTS 0, Beta cell apopt -1, rRNA inh HTS OD600 4 and rRNA inh HTS RFP -6.8.
Screening O=c1oc2ccccc2cc1-c1ccc(O)cc1O returned UCH37 inh -12, Bfl-1 A1 inh -0.2, Ecoli growth 0.63, T cruzi repl -2 and Beta cell apopt -6.
For O=C(O)C(=O)/C(=C\c1cccc(Cl)c1)c1ccc2ccccc2n1 the results were UCH37 inh -49, FGF22 binding inactive, Bfl-1 A1 inh -2.3, Ecoli growth 0.7, rRNA inh HTS -7, T cruzi repl 0, Beta cell apopt -6, AF4-AF9 inh -2.0, rRNA inh HTS OD600 11 and rRNA inh HTS RFP 18.
Screening CNc1nc(C)c(C(=O)OCC(=O)OC)s1 returned UCH37 inh 6.9, Bfl-1 A1 inh -1.6, Ecoli growth 0.71, T cruzi repl -9 and Beta cell apopt -2.
`Cc1cc(S(=O)(=O)c2ccc([N+](=O)[O-])cn2)ccc1Br` gave UCH37 inh 7.5, Bfl-1 A1 inh 0.1, Ecoli growth 0.6, rRNA inh HTS 7, T cruzi repl 15, Beta cell apopt 17, AF4-AF9 inh -1.4, rRNA inh HTS OD600 6 and rRNA inh HTS RFP -0.4.
`Cc1nnc(NC(=O)CN2CC(C)OC(C)C2)s1` (centres undefined) gave UCH37 inh 0.3, FGF22 binding inactive, Bfl-1 A1 inh 0.8, Ecoli growth 0.7, rRNA inh HTS 2, T cruzi repl 4, Beta cell apopt 1, AF4-AF9 inh -15, rRNA inh HTS OD600 5 and rRNA inh HTS RFP 1.7.
CC1(C(=O)O)CC(C)(C(=O)O)CC(C)(C(=O)O)C1 (centres undefined) was read as UCH37 inh 1.0, Bfl-1 A1 inh 1.0, Ecoli growth 0.72, T cruzi repl -16 and Beta cell apopt -5.
COc1ccc(OC)c(NC(=O)CSC2=NCCS2)c1 was read as UCH37 inh 4.3, Bfl-1 A1 inh 1.6, Ecoli growth 0.76, T cruzi repl -6 and Beta cell apopt -15.
`CCCCOc1cccc(C2C(C(=O)c3cccs3)=C(O)C(=O)N2Cc2cccnc2)c1` (centres undefined) gave UCH37 inh 8.5, FGF22 binding inactive, Bfl-1 A1 inh 1.1, Ecoli growth 0.71, rRNA inh HTS 14, T cruzi repl -1, AF4-AF9 inh -2.6, rRNA inh HTS OD600 12 and rRNA inh HTS RFP 0.1.
For CCCCNC(=O)[C@@H]1CSC2c3ccccc3C(=O)N21 (some centres undefined) the results were UCH37 inh 2.0, FGF22 binding inactive, Bfl-1 A1 inh -0.8, Ecoli growth 0.68, rRNA inh HTS 7, T cruzi repl -5, Beta cell apopt -2, AF4-AF9 inh -4.7, rRNA inh HTS OD600 14 and rRNA inh HTS RFP -0.8.
Screening COc1ccc(CN2CCNC(=O)C2CC(=O)N(C)CCc2cnn(C)c2)c(F)c1 (centres undefined) returned UCH37 inh -2.6, FGF22 binding inactive, Bfl-1 A1 inh -0.7, Ecoli growth 0.69, rRNA inh HTS 12, T cruzi repl -12, Beta cell apopt -3, AF4-AF9 inh -1.7, rRNA inh HTS OD600 10 and rRNA inh HTS RFP -1.0.
Screening CN(c1cccc(NC(=O)c2ccccc2N(C)S(=O)(=O)c2ccccc2)c1)S(C)(=O)=O returned UCH37 inh -1.5, Bfl-1 A1 inh 0.5, Ecoli growth 0.69, T cruzi repl -19 and Beta cell apopt -3.
Screening Cc1cccc(NC(=S)N(CCCN2CCOCC2)C(C)c2cc3ccccc3o2)c1C (centres undefined) returned UCH37 inh 1.1, FGF22 binding inactive, Bfl-1 A1 inh -0.1, Ecoli growth 0.67, rRNA inh HTS -10, T cruzi repl 10, Beta cell apopt -9, AF4-AF9 inh 3.6, rRNA inh HTS OD600 -8 and rRNA inh HTS RFP 7.0.

An excerpt; the hit share may differ from the screen's.
